Screening results as filed in PubChem BioAssay.
AID504770 – growth inhibition of E. coli YBA685, primary screen, V. cholerae RctB inhibitors | E. coli YBA685 rctB-dependent plasmid, OD600 growth, 3 h; active compounds read low | 0.27% of 130,000 active | z-score (test concentration not listed) | AID 504770, 2011;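 active means z-score under -2 on both plates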;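 further: wells of about 30 µL received 100 nL stock; score is relative to mean and SD of the test wells; the first replicate is given; strong numbers were not always called active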
Ba CapD inh – Bacillus anthracis CapD inhibitors, primary screen, biochemical, fluorescence intensity. purified CapD enzyme, fluorescence intensity read-out; active compounds read low; some hits fall short of the stated cut. z-score (test concentration not listed). CapD gamma-glutamyltranspeptidase (Bacillus anthracis Ames Ancestor). 0.23% of 140,000 active;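 active means z-score under -4 in either of two replicates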;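 further: stock transfer was 100 nL into about 40 µL; score is relative to mean and spread of the plate; one replicate is shown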
* hit, by the source's call; · = no result given.

SMILES	AID504770	Ba CapD inh
Cc1cccc(-c2nc3sc4c(c3c(=O)[nH]2)CCCC4)c1	-0.15	-0.38
O=C(COc1ccccc1)N1CCN(c2ncccn2)CC1	0.1	·
CCOC(=O)c1ccc(N=C2NC(=O)/C(=C/c3ccc(N4CCOCC4)cc3)S2)cc1	0.05	·
C=CCOC(=O)C1=C(C)NC(=O)NC1c1cn(-c2ccccc2)nc1-c1ccc(OC)c(Cl)c1 (stereo not drawn)	·	0.14
CCc1noc(C)c1C(=O)N1CCc2ccccc21	-0.65	·
O=C1CCCC2=C1C(c1ccccc1)CC(=O)N2c1ccc(F)cc1 (stereo not drawn)	-0.8	-0.52
CN1CCN(c2ncc(-c3ccc(Cl)cc3)cn2)CC1	·	2.9
CN(CCO)c1nc2cc(Cl)ccc2s1	-0.75	0.25
O=C(Oc1ccc2sc(=O)oc2c1)c1cccs1	-0.2	-0.19
Cn1ccnc1C(O)c1ccc2c(c1)OCO2 (stereo not drawn)	0.7	-0.01
O=c1[nH]c(CSc2ccccn2)nc2c1oc1ccccc12	-0.2	-0.14
O=C(NCC1CCC(C(=O)Nc2ccc3c(c2)OCO3)CC1)c1ccc(=O)[nH]c1 (stereo not drawn)	-0.35	0.78
Cc1ccc(CS(=O)(=O)Cc2ccc(C(=O)NCC3CCCO3)o2)cc1 (stereo not drawn)	-0.95	-0.37
CCOc1ccccc1CNC(=O)C(C)n1ncn2cccc2c1=O (stereo not drawn)	-0.7	0.1
N#CC(c1ncc(C(F)(F)F)cc1Cl)c1c(Cl)cccc1Cl (stereo not drawn)	·	-0.71
Cc1onc(-c2c(Cl)cccc2Cl)c1C(=O)NCC(C)(C)C	-0.6	-0.12
COc1ccc(Cl)cc1NC(=O)CN(c1ccccc1)S(=O)(=O)N(C)C	1.2	-0.17
O=C1CSC(=Nc2cccc3ccccc23)N1	-0.9	2.7
O=C(CC1SC(=Nc2ccc(O)cc2)NC1=O)c1ccc(F)cc1 (stereo not drawn)	1.1	·
Nc1nc(-c2c(Cl)cccc2Cl)no1	0.95	-1.6
CC(C)(C)OC(=O)N1CCN(C(=O)C2CCN(c3nccc(C(F)(F)F)n3)CC2)CC1	0.3	0.95
O=[N+]([O-])/C(=C\Nc1ccc(C(F)(F)F)cc1)S(=O)(=O)c1ccccc1	·	-0.14
N#CC1c2ccccc2C=CN1C(=O)C1=CCCCC1 (stereo not drawn)	-0.2	0.53
O=C(OCc1ncc(-c2ccccc2)o1)c1ccccc1SCC(=O)N1CCCC1	0.2	·
COc1cccc(CNCCc2ccccc2)c1OC	-0.7	0.065
NC(=O)c1ccc(C(=O)c2ccccc2)cc1	-0.4	0.07
O=C(Cn1[nH]c(=O)c2ccccc2c1=O)N1CCSC1=NCc1ccccc1	-0.1	·
CCNC(=O)N(C)Cc1nc(-c2cccc(C)c2)no1	0.25	0.75
CCn1nc(C(=O)Nc2ccc(F)cc2C)c2ccccc2c1=O	-0.05	·
Clc1ccccc1N=C1SCCS1	-0.35	-0.7
O=C(CN1CCC(n2nnc3cc(F)ccc32)CC1)N1CCCc2ccccc21	-0.2	·
CCOC(=O)N1CCN(c2ccc(C(F)(F)F)cn2)CC1	-0.55	6.4
NC(=O)C1CCN(C(=O)CCC(=O)c2ccc(Br)cc2)CC1	-1.2	·
O=C(Nc1ccccc1)C(=S)Nc1ccccc1	1.6	-0.28
Cc1nccnc1-c1ccnn1S(=O)(=O)c1ccccc1	1.1	-0.35
Cc1oc(-c2cccc(C(F)(F)F)c2)cc1C(=O)Nc1nccs1	-0.1	·
Cc1ccc(NC(=O)CCNS(=O)(=O)c2ccc3c(c2)CCC(=O)N3)c(Br)c1	2.6	1.6
N#Cc1ccc(CSc2nc(N)cc(=O)[nH]2)cc1	1.1	0.76
Cc1cccc(-n2c(-c3ccc(Cl)cc3)cn3c4c(=O)n(C)c(=O)n(C)c4nc23)c1	·	-0.045
O=C(Nc1c2c(nn1-c1ccc(Cl)cc1)CSC2)c1ccc(S(=O)(=O)N2CCOCC2)cc1	·	-0.49
CCOC(=O)C1CCCN(C(=O)c2sc3ncnc(N(CC)CC)c3c2C)C1 (stereo not drawn)	·	-0.55
Cc1cc(=O)c2cc(Br)ccc2[nH]1	-0.25	·
CCc1ccccc1NC(=O)N1Cc2ccccc2-n2cccc2C12CCN(C(C)=O)CC2	-0.15	1.3
COc1cc(/C=C2N=C(/C=C/c3ccc(Cl)cc3)OC/2=O)cc(Br)c1OC(C)=O	·	-0.43
O=C(/C=C/c1cn(-c2ccccc2)nc1-c1cc2ccccc2o1)Nc1nc2ccccc2[nH]1	-2.6	·
Nc1cc(-c2ccccn2)[nH]n1	0.8	·
COc1ccc(C2=NOC(C(=O)Nc3ccc(C)cc3)C2)cc1 (stereo not drawn)	-0.15	2.5
Cc1cccc(-n2c(CNC(=O)COc3ccc(Cl)cc3)n[nH]c2=S)c1	-0.3	0.13
CNC(=S)NCc1cccnc1	-0.8	-0.06
O=C(NCc1ccccc1)C(Cc1ccccc1)N1C(=O)c2ccccc2C1=O (stereo not drawn)	1.3	-0.12
More records
SMILES	AID504770	Ba CapD inh
FC(F)(F)c1ccc(-n2ccnc2)nc1	·	0.32
Oc1ccccc1Oc1c(F)c(F)nc(N2CCOCC2)c1F	-1.2	0.41
Cc1ccc(C(=O)c2cc3ccccc3o2)cc1C	-0.4	-1
NC1(C2CCCCC2=O)CCCCC1 (stereo not drawn)	-0.55	·
CCC1CCc2sc(-c3n[nH]c(=S)n3C)cc2C1 (stereo not drawn)	-0.2	·
COC(=O)c1ccc[nH]c1=S	-0.55	·
COC(=O)CNC(=O)c1cccnc1Sc1ccc(Cl)cc1	0.85	0.42
O=C(Nc1c(C(=O)N2CCCC2)oc2ccccc12)C1CCCCC1	-0.55	1.4
Fc1ccc(CO/N=C/c2ccc(Sc3ccc(Cl)cc3)nc2)cc1	·	0.79
N#CC(C#N)=C1c2ccccc2-c2nc(C#N)c(C#N)nc21	-0.5	·
Nc1cccnc1Oc1ccc(F)cc1	-1	-1
Nc1nnc(N2CCc3ccccc32)s1	-0.5	-0.55
CC12COC3(C(N)=O)CC1CCC32C (stereo not drawn)	-0.3	-0.075
O=C(OCCn1nc(-c2ccccc2)cc1-c1ccccc1)N1CCN(Cc2cc3ccccc3o2)CC1	·	-0.025
Cc1cc(NCCC#N)ccc1Cl	-1.4	·
CCCNc1nc(Cl)nc(NCC(=O)OCC)n1	1.4	0.53
O=C(CCC(=O)c1ccc2c(c1)OCCCO2)OCc1nc2ccccc2o1	-0.35	·
O=C=NC(Cl)(c1ccccc1)C(F)(F)F (stereo not drawn)	-0.6	0.21
CC(C)N(C(=O)COc1ncnc2ccc(Br)cc12)C(C)C	-1.1	·
C/C(N)=C(/C#N)C(=O)CSc1cccc(C(F)(F)F)c1	-0.55	·
Cc1cc2cc(CNC(=O)C34CC5CC(CC(C5)C3)C4)ccc2[nH]1	-0.75	0.29
CC1CCC(NC(=O)c2ccc(CS(C)(=O)=O)cc2)CC1 (stereo not drawn)	2	·
O=c1[nH][nH]c(=S)n1-c1cccc(F)c1	-0.4	-0.28
Cn1c2ccccc2c2cc([N+](=O)[O-])ccc21	·	-1.7
CSc1nnc(CSc2nc(C)cc(C)n2)n1-c1ccc(F)cc1	-0.45	-0.54
CC(=O)N1N=C(c2cccc([N+](=O)[O-])c2)OC1c1ccc2c(c1)OCO2 (stereo not drawn)	·	-0.28
Cc1nc(-c2ccc(Cl)cc2)sc1C(C)OC(=O)Nc1ccccc1 (stereo not drawn)	·	8
O=S(=O)(NC1CCCCC1N1CCCCC1)c1ccccc1 (stereo not drawn)	2.2	-0.55
O=C1C(NS(=O)(=O)c2ccccc2)=C/C(=N\S(=O)(=O)c2ccc(F)cc2)c2ccccc21	-0.85	-0.87
CCOC(=O)c1ccc(NC(=O)C2CC(=O)N(CC)C(=Nc3ccc(F)cc3)S2)cc1 (stereo not drawn)	·	-0.17
CCCCCCSc1nnc2c3ccccc3n(C)c2n1	·	0.74
Cc1ccc(C(=O)NCCn2ccc3ccccc32)cc1	-0.35	-0.03
Cc1ccc(C)c(CN2C(=O)C(C(C)C(=O)NCc3ccc4c(c3)OCO4)Sc3ccccc32)c1 (stereo not drawn)	0.3	0.25
N#Cc1ccccc1NC(=O)CN1CCCC1	0.75	-0.12
O=C(c1ccc(Br)cc1)c1cnc(Nc2ccccc2Cl)s1	·	2.7
CCCCc1nnc(NC(=O)Nc2ccc(C)cc2)s1	-0.15	-0.15
Cn1ccnc1Sc1cnc(=S)[nH]c1-c1ccc(Cl)cc1	-0.7	0.34
CC(C)OC(=O)CSc1nnc(-c2ccc(N(C)C)cc2)o1	0.85	0.44
O=S1(=O)N=C(N2CCNCC2)c2ccccc21	-0.5	-0.095
Cc1cc(S(=O)(=O)Nc2ccnn2C)c(C)cc1Cl	·	-0.46
O=S1(=O)N=C(Nc2ccc(N3CCCCC3)c(Cl)c2)c2ccccc21	1.9	-0.13
CCC(=O)Nc1ccc(S(=O)(=O)N(C)C2CCCCC2)cc1	-0.15	0.66
Oc1ccc(/C=N/N2CCOCC2)cc1	-0.2	·
CCCN(Cc1ccco1)S(=O)(=O)c1ccc(OC)c(OC)c1	1.1	0.54
COc1ccc(OC)c(NC(=O)C2CC(=O)N(CCc3ccccc3)C2)c1 (stereo not drawn)	0.7	·
Cc1ccc(S(N)(=O)=O)cc1C(=O)NC1CCCCC1	0.6	0.46
O=C(Nc1nnc(SCc2cccc(F)c2)s1)c1ccccc1	-1.1	0.39
CC[C@@]1(O)C[C@H](O[C@H]2C[C@H](N(C)C)[C@H](O)[C@H](C)O2)c2c(cc3c(c2O)C(=O)c2c(O)cccc2C3=O)[C@H]1C(=O)OC	1.4	8.2
Cc1ccc(N=C2S/C(=C/c3cccc(OCC(=O)O)c3)C(=O)N2C)cc1C	1.2	9.7
O=C(c1cccc(C(F)(F)F)c1)c1c[nH]c(C(=O)NCCc2ccccn2)c1	·	-0.065
Further records follow:
SMILES	AID504770	Ba CapD inh
CN(n1cnc2ccccc2c1=O)S(C)(=O)=O	0.25	0.87
Cc1nc2c([nH]1)C1(CCC(c3ccccc3)CC1)C(C#N)=C(N)O2 (stereo not drawn)	-1.1	-0.15
NCCNC(=O)c1ccc(Cl)cc1	·	1.2
CCC(Sc1nc2ncccc2o1)C(=O)NCc1ccc(C)cc1 (stereo not drawn)	-0.2	-0.32
CCCNc1ccccc1N	-0.2	·
Cn1c(SCc2ccc(-c3csnn3)cc2)nnc1C(F)(F)F	-0.05	-0.35
CN1CCN(C(=O)COc2cccc3ccccc23)CC1	-0.1	·
CSCc1c(C(=O)OC(C)C#N)oc2ccccc12 (stereo not drawn)	0	·
CCCn1cnc2scc(-c3ccccc3)c2c1=O	-0.15	·
COc1ccccc1-c1nn(CCC#N)c2nc(C(F)(F)F)cc(C3CC3)c12	-0.25	0.065
O=C(NC1CCCCC1)C1CCC(CNS(=O)(=O)c2ccccc2)CC1 (stereo not drawn)	2.5	-0.25
Cc1c(C)c(C)c(S(=O)(=O)N2CCCC2)c(C)c1C	0.4	0.82
Cc1cccc(CNCc2ccc3c(c2)OCO3)c1	-0.2	-0.81
O=C(O/N=C1\CCCc2[nH]c3ccccc3c21)c1ccc(Cl)cc1Cl	·	1
CCC(Sc1nnc(-c2cc3occc3n2C)n1-c1ccccc1C)C(=O)Nc1ccc(C)cc1 (stereo not drawn)	-0.25	-0.78
COc1ccc(Cc2nc3ccccc3n2Cc2ccccc2)cc1	-0.95	0.98
C=CCN(c1ccccc1)S(=O)(=O)c1ccc2c(c1)CC(C)N2C(=O)C1CC1 (stereo not drawn)	-0.95	0.31
CC(C)(C)OC(=O)N1CCC(c2cc(=O)n3[nH]c(-c4ccc(Cl)cc4)cc3n2)CC1	-0.1	0.25
O=[N+]([O-])c1cc(Cl)c(Sc2ccccc2)cc1Sc1ccccc1	·	-0.53
Cc1ccc(Nc2nc(C3CC3)cs2)cc1	-0.6	10
CC1CCN(CCC(=O)Nc2ccccc2F)CC1	-0.4	0.17
O=C(CSc1ncnc2c1nnn2Cc1ccccc1)Nc1ccccc1	-0.15	·
C=C(C)c1cccc(C(C)(C)NC(=O)NCc2ccc(OC)cc2)c1	-0.7	-0.22
N#CC(NC(=O)c1ccccc1)=C(Br)Br	0.35	0.03
